Screening data as filed in PubChem BioAssay.
SARS PLP yeast: blocks SARS-CoV papain-like protease in a yeast assay; actives 0.19% (n = 330,000); Potency, µM (highest dose often 32.9 µM), for the others: at the top dose activity, positive = growth rescue; S. cerevisiae expressing SARS-CoV PLpro, growth rescue; control for the full effect not named in the record; note: 0% is about no effect; nearly all actives have a fitted effect of over 55% in size; growth read by luminescence after 48 h
StopGo reporter: FMDV 2A StopGo reporter, luciferase signal | human cells with a luciferase reporter of 2A StopGo recoding; control for the full effect not named in the record | Potency, µM (doses to about 57.9 µM), without a hit: top-dose signal change, negative = less light | actives 1.2% (n = 410,000) | AID 1159524; active = well fitted falling curve with a large enough effect; inconclusive = small, poorly fitted or top-dose-only effect; inactive = no such curve, though single readings can be large or run the other way; tested in HEK293T cells; note: % is set by controls: 0 for no effect and ±100 for the full control effect; nearly all actives have a fitted effect of over 45% in size; luciferase light after 4 h
NS1 inh: influenza NS1 inhibition; actives 0.4% (n = 270,000); S. cerevisiae slowed by influenza A NS1, growth recovery by OD600; Potency, µM (series often up to 46.1 µM), for inactives: top-dose activity, positive = more growth; note: actives are rising curves; nearly all actives have a fitted effect of over 50% in size
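Growth recovery, yeast-based: influenza A NS1 expressed in S. cerevisiae causes slow growth, and suppressors are detected by OD600. The parent strain without NS1 is used as positive control.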
MARV entry inh: inhibitors of Marburg virus binding or cell entry. Marburg virus pseudotyped entry inhibition, cell reporter; control for the full effect not named in the record; about a third of the inactives were read at about 46 µM. Potency, µM (doses to about 37.8 µM), for the others: top-dose activity change, negative = inhibition, actives largely listed as inhibitors. actives 1.8% (n = 300,000); active = well fitted inhibition curve with a large enough effect; inconclusive = small, poorly fitted or top-dose-only effect, or effect the other way; inactive = flat fitted curve, though single readings scatter; tested in HEK293 cells; about a fifth of its hits are not listed in these tables; note: % is set by controls: 0 for no effect and ±100 for the full control effect; luciferase read-out
LASV entry inh: blocks Lassa virus binding to or entry into cells; Potency, µM (series often up to 37.9 µM), without a hit: top-dose activity change, negative = inhibition, usual class: inhibitors; actives 1.2% (n = 300,000); AID 540256; Lassa virus pseudotype entry inhibition, cell reporter; control for the full effect not named in the record; active means well fitted inhibition curve with a large enough effect; inconclusive means small, poorly fitted or top-dose-only effect, or effect the other way; inactive means flat fitted curve, though single readings scatter; tested in HEK293 cells; note: % is set by controls: 0 for no effect and ±100 for the full control effect; nearly all actives have a fitted effect of over 50% in size; luciferase read-out
RE007 growth inh: less growth of the S. pombe RE007 Vpr strain | S. pombe RE007 Vpr strain, BacTiter-Glo ATP luminescence, 24 h; control for the full effect not named in the record | Potency, µM (titrated, usually from 92.2 µM), inactives show at the top dose activity change, negative = less growth | actives 0.21% (n = 360,000) | AID 651644; active = well fitted falling curve with a large enough effect; inconclusive = small, poorly fitted or top-dose-only effect; inactive = no such curve, though single readings can be large or run the other way;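 note: % is set by controls: 0 for no effect and ±100 for the full control effect; nearly all actives have a fitted effect of over 50% in size; the assay follows cell death caused by Vpr and the record does not say whether a fall means rescue or toxicity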
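Fission yeast RE007 carrying one integrated HIV-1 vpr copy, seeded at OD 0.01 in PMG+AL medium with 23 nL pinned compound. Grown 24 h at 30 degrees; viability read by BacTiter-Glo luminescence after 5 min.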
Cruzain inh Det: cruzain (T. cruzi) inhibition with detergent; P25779; Potency, µM, inactives show max response, negative = inhibition, actives largely listed as inhibitors; actives 0.43% (n = 200,000); purified cruzain, Z-FR-AMC fluorescence, 0.01% Triton; active = well fitted curve in the direction sought with a large enough effect; inconclusive = small, poorly fitted or top-dose-only effect, or another doubt; inactive = no such curve, though single readings can be large; an effect the other way counts as inactive or inconclusive;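 note: plate controls were neutral wells for no effect and buffer without enzyme for full effect; nearly all actives have a fitted effect of over 40% in size; top concentration of the series not given in the record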
Target sequence (P25779 123-467 limits assumed): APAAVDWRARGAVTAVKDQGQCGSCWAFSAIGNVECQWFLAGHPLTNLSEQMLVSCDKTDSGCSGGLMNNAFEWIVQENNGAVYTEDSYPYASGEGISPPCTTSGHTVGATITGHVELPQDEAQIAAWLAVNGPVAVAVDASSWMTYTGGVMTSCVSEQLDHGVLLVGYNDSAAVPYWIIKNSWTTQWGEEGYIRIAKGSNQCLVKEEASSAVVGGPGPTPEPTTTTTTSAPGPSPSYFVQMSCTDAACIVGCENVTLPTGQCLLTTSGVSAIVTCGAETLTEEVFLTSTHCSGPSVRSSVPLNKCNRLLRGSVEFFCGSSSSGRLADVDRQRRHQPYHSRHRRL
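Read-out: AMC fluorescence (360 nm excitation, 450 nm emission), four reads over 2 min, first-to-third difference used. Conditions: cruzain 1.5 nM, Z-FR-AMC 2 uM, pH 5.5 acetate, 5 mM DTT, 0.01% Triton X-100.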
Cruzain inh noDet: blocks cruzain activity in detergent-free assay; P25779; purified cruzain, Z-FR-AMC fluorescence, no detergent; Potency, µM, inactives show max response, negative = inhibition, hits mostly inhibitors; actives 2.3% (n = 200,000); AID 1476; active = well fitted curve in the direction sought with a large enough effect; inconclusive = small, poorly fitted or top-dose-only effect, or another doubt; inactive = no such curve, though single readings can be large; an effect the other way counts as inactive or inconclusive;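 note: plate controls were enzyme without inhibitor for no effect and buffer without enzyme for full effect; nearly all actives have a fitted effect of over 40% in size; top concentration of the series not given in the record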
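Detergent-free condition (0.00005% Triton X-100) in acetate buffer pH 5.5 with DTT. 1.5 nM enzyme and compound were pre-mixed 15 min, then 2 uM Z-FR-AMC substrate added; reaction progress from fluorescence change between first and third reads (60 s).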
The depositor's hits bear a star; ? = inconclusive; . = not tested or not shown; & = joins results of further samples; [ ] = remark or other dose. Unless noted, calls come from the whole dose curve; as a rule, active means well fitted rising curve with a large enough effect; inconclusive means small, poorly fitted or top-dose-only effect; inactive means no such curve, though single readings can be large or run the other way. Potency is the fitted concentration of half-maximal effect.

SMILES	SARS PLP yeast	StopGo reporter	NS1 inh	MARV entry inh	LASV entry inh	RE007 growth inh	Cruzain inh Det	Cruzain inh noDet
CCCCN(C(=O)CC1OC(=O)c2ccccc21)c1c(N)n(CCCC)c(=O)[nH]c1=O (stereo unspecified)	-2%	-3%	.	24%	14%	11%	.	.
Cc1cccc(-c2noc(CN(C(=O)c3ccc4c(c3)OCO4)C(C)C)n2)c1	-14%	?	-30%	?	-32%	8%	-0.7%	-11%
O=c1c2ccccc2c(C=NC2CCS(=O)(=O)C2)c(O)n1-c1ccccc1 (stereo unspecified)	-4%	1%	-16%	1%[46.1 µM]	-1%	38%	-3.9%	-7%
COC(=O)c1ccc(NC(=O)C2CC3CCC2C3)cc1 (stereo unspecified)	.	46%[activator]	.	?	24%	-6%	.	.
COc1ccc(NC(=O)c2ccc3c(c2)C(=O)N(Cc2ccncc2)C3=O)cc1S(N)(=O)=O	3%	5%	.	?	-9%	-8%	.	.
Cc1ccc(C(=O)OCCN(C)Cc2ccccc2)cc1	0%	9%	4%	.	.	-4%	.	.
COc1ccc(CN2CCN(C(=O)c3ccc(S(=O)(=O)N4CCCCCC4)cc3)CC2)cc1	0%	20µM*	.	-5%	?	-2%	.	.
C[C@H](NC(=O)c1ccccc1Cl)C(=O)OCCOc1ccc(Cl)cc1	-7%	-14%	-73%	.	.	-1%	.	.
Clc1ccc(-c2nc3ccncc3[nH]2)cc1	-56%	54%[activator]	-8%	11%	21%	40µM*	-11%	3%
COC(=O)/C(C#N)=C/c1c(N2CCN(c3ccccc3)CC2)nc2ccccn2c1=O	0%	11%	3%	-29%[46.1 µM]	18%[46.1 µM]	-11%	.	.
CC1CC(=O)NN=C1c1ccc(N)c([N+](=O)[O-])c1 (stereo unspecified)	8%	-9%	3%	2%	7%	12%	-7.1%	-17%
Cc1cccc(NC(=S)NC(C)CCc2ccccc2)c1 (stereo unspecified)	-76%	-2%	-28%	?	-20%	5%	-7.3%	2%
Cc1ccc(C)c(OC(C)C(=O)Nc2ccc(S(=O)(=O)Nc3nccs3)cc2)c1 (stereo unspecified)	-1%	52%[activator]	2%	-5%[46.1 µM]	.	-7%	.	.
CNC(=O)c1[nH]nc2c1CCc1cc(OC)ccc1-2	-7%	-3%	-1%	?	?	-6%	.	.
CC1CCN(Cc2c(O)ccc3c2O/C(=C\c2ccco2)C3=O)CC1	-19%	3%	8.9µM*	-35%	7%	-11%	-23%	22%
N#CCSc1nc2cc(C(=O)N3CCCC3)ccc2c(=O)n1Cc1ccccc1	6%	0%	-20%	-9%[46.1 µM]	?	3%	-0.7%	27%
c1csc(Cc2nn3c(-c4n[nH]c5c4CCC5)nnc3s2)c1	-1%	-5%	15%	-18%	-21%	-23%	-4.1%	?
CC(=O)N(Cc1cccnc1)c1nc2ccc(F)cc2s1	.	-8%	.	.	16%[46.1 µM]	.	-2.3%	-3%
COc1ccc(C(=O)COC(=O)c2cc(-c3ccccc3)nc3c(C)cccc23)cc1	.	-9%	.	.	-11%[46.1 µM]	.	-0.3%	2%
CCOC(=O)c1cnc2c(ccc3ccccc32)c1Nc1ccc(OC)c(OC)c1	.	-10%	.	?	-17%[46.1 µM]	.	-3.6%	3%
O=C(c1ccc(F)cc1)N1CCCN(c2nc(-c3ccccc3)ns2)CC1	-4%	1%	-1%	.	.	-5%	.	.
O=C(Nc1cccc(-c2cscn2)c1)C1CCN(Cc2ccc(CO)o2)CC1	-2%	-15%	-12%	.	.	2%	.	.
Cc1cc(Nc2ccc(Cl)cc2)nc(N2CCOCC2)n1	-1%	15%	-5%	7.9µM*	6%	9%	.	.
CCCc1cc(SCC(=O)Nc2c(C)n(C)n(-c3ccccc3)c2=O)n2c(nc3ccccc32)c1C#N	-4%	24%	19%	-7%	?	5%	6.5%	-4%
O=C(CSCCO)N1CCc2ccccc21	0%	-3%	-2%	-6%	7%	8%	1.3%	0%
COc1ccc(NC(=O)c2cc(CN3CCCC3)on2)cc1Cl	.	21%	.	.	15%[46.1 µM]	.	-2.2%	3%
Cc1ccc(/C=C2\SC(=S)N(CCC(=O)NNC(=O)c3cccc(O)c3)C2=O)cc1	4%	15%	22%	.	.	21%	.	.
O=C(NCC1CCCN1S(=O)(=O)c1cccs1)C(=O)Nc1ccccc1 (stereo unspecified)	2%	30%[activator]	.	?	3%[46.1 µM]	6%	.	.
COc1ccc(CN(C)C2CCN(C)CC2)cc1OC	-3%	8%	-25%	.	.	7%	.	.
O=C(COc1ccc(F)cc1)NCCN1CCCC1	1%	-11%	2%	-25%	5%	1%	.	.

Laid out differently: results already given
Results follow in this order: SARS PLP yeast	StopGo reporter	NS1 inh	MARV entry inh	LASV entry inh	RE007 growth inh	Cruzain inh Det	Cruzain inh noDet
CC1CCN(Cc2c(O)ccc3c2O/C(=C\c2ccco2)C3=O)CC1
→ -19%	3%	8.9µM*	-35%	7%	-11%	-23%	22%
N#CCSc1nc2cc(C(=O)N3CCCC3)ccc2c(=O)n1Cc1ccccc1
→ 6%	0%	-20%	-9%[46.1 µM]	?	3%	-0.7%	27%
c1csc(Cc2nn3c(-c4n[nH]c5c4CCC5)nnc3s2)c1
→ -1%	-5%	15%	-18%	-21%	-23%	-4.1%	?
CC(=O)N(Cc1cccnc1)c1nc2ccc(F)cc2s1
→ .	-8%	.	.	16%[46.1 µM]	.	-2.3%	-3%
COc1ccc(C(=O)COC(=O)c2cc(-c3ccccc3)nc3c(C)cccc23)cc1
→ .	-9%	.	.	-11%[46.1 µM]	.	-0.3%	2%
CCOC(=O)c1cnc2c(ccc3ccccc32)c1Nc1ccc(OC)c(OC)c1
→ .	-10%	.	?	-17%[46.1 µM]	.	-3.6%	3%
O=C(c1ccc(F)cc1)N1CCCN(c2nc(-c3ccccc3)ns2)CC1
→ -4%	1%	-1%	.	.	-5%	.	.
O=C(Nc1cccc(-c2cscn2)c1)C1CCN(Cc2ccc(CO)o2)CC1
→ -2%	-15%	-12%	.	.	2%	.	.
Cc1cc(Nc2ccc(Cl)cc2)nc(N2CCOCC2)n1
→ -1%	15%	-5%	7.9µM*	6%	9%	.	.
CCCc1cc(SCC(=O)Nc2c(C)n(C)n(-c3ccccc3)c2=O)n2c(nc3ccccc32)c1C#N
→ -4%	24%	19%	-7%	?	5%	6.5%	-4%
O=C(CSCCO)N1CCc2ccccc21
→ 0%	-3%	-2%	-6%	7%	8%	1.3%	0%
COc1ccc(NC(=O)c2cc(CN3CCCC3)on2)cc1Cl
→ .	21%	.	.	15%[46.1 µM]	.	-2.2%	3%
Cc1ccc(/C=C2\SC(=S)N(CCC(=O)NNC(=O)c3cccc(O)c3)C2=O)cc1
→ 4%	15%	22%	.	.	21%	.	.

(further entries)
SMILES	SARS PLP yeast	StopGo reporter	NS1 inh	MARV entry inh	LASV entry inh	RE007 growth inh	Cruzain inh Det	Cruzain inh noDet
CCCCCCC(=O)N1CCC(c2nc3c(nnn3Cc3ccccc3Cl)c(=O)[nH]2)CC1	-3%	?	-25%	0%&-9%	-29%	8%	-7.8%	?
COc1ccc(N2CC(NC(=O)COc3ccccc3)CC2=O)cc1OC (stereo unspecified)	.	-2%	.	.	3%[46.1 µM]	.	-1.7%	0%
Cc1c(Cl)c([N+](=O)[O-])nn1CC(=O)N1CCc2ccccc2C1	-4%	-25%	-6%	17%	-9%	7%	-3.6%	-24%
CSc1ccc(C(=O)C2CCCN(C(=O)c3ccc(C)nc3)C2)cc1 (stereo unspecified)	2%	-13%	-7%	-10%	-3%	4%	.	.
COc1ccc(NS(=O)(=O)c2cc3c(cc2C)NC(=O)CO3)c(OC)c1	1%	-1%&40%	3%	.	-14%[46.1 µM]	-4%	-8.6%	5%
COc1ccc(Cl)cc1N1C(=O)c2cccnc2C1=O	0%	4%	-1%	.	.	8%	.	.
CC(=O)c1cccc(NC(=O)c2cc3nc(C)cc(C)n3n2)c1	-4%	16%	-6%	?	-13%	-17%	-2.6%	4%
Cc1cccc(N2CCN(C(=O)c3cc4cc(F)ccc4[nH]3)CC2)c1C	2%	-8%	4%	-3%	?	-16%	.	.
COc1cc(/C=N/NC(=O)C2(O)c3ccccc3-c3ccccc32)ccc1O	-1%	-10%	-13%	0%	?	23%	-6.4%	3%
CCn1c(C)cc(O)cc1=O	1%	-11%	4%	?	?	2%	.	.
Cc1nc(NC(=O)c2ccccc2)sc1-c1csc(Nc2ccc(F)cc2)n1	9%	.	?	.	.	.	-2.8%	16µM*
Cc1ccccc1Nc1nc(N)nc(CSc2nc3ccccc3c(=O)n2CCCO)n1	2%	-6%	-6%	1%&-28%	16%	16%	-1.6%	28%
Cc1ccc(Cl)cc1NC(=O)CCC(=O)NCc1ccco1	-2%	-4%	9%	14%	-7%	3%	.	.
Cc1ccccc1Nc1nc(N)nc(COC(=O)c2cccc(S(=O)(=O)N(C)c3ccccc3)c2)n1	2%	?	-17%	?	?	14%	-3.1%	?
Cc1cc(C)n2nc(-c3ccc(Br)cc3)cc2n1	-4%	54%[activator]	-9%	.	.	-3%	.	.
COc1cc(C=O)ccc1OCCOCCOc1ccccc1Cl	-1%	-21%	-52%	27%	12%	-2%	-2.1%	-4%
Cc1ccc(C)c(Nc2ncnc3nc[nH]c23)c1	-6%	4%	-8%	.	.	4%	-2.0%	2%
COC(=O)c1c(NC(=O)C(=O)N2CCOCC2)sc2c1CCC2	1%	?	-4%	.	.	2%	.	.
Cc1cc(C)cc(OCCCn2c(-c3ccc(Cl)cc3)nc3ccccc3c2=O)c1	.	3%	.	5%[46.1 µM]	?	.	-1.9%	-2%
Cc1onc(-c2ccccc2)c1-c1csc(N/N=C/c2ccccc2Cl)n1	0%	-22%	12%	-8%[46.1 µM]	?	0%	.	.
CCCCCn1c(N)c(-c2nc3ccccc3o2)c2c([N+](=O)[O-])nn(CC)c(=O)c21	10%	-29%	-8%	-1%	19%	12%	-4.7%	10µM*
